RecA intein inh – Mtb RecA intein splicing inhibition; inhibition, %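 (about 9 µM by stock and volumes)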; cell-free RecA intein splicing, fluorescence; AID 2221; 290,000 tested, 0.75% active; P9WHJ3; in the data active means inhibition above about 30%; inconclusive means no clear call, values can overlap the other calls;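 further: 0% = vehicle wells and 100% = reference inhibitor control wells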
Target sequence (P9WHJ3 whole entry, looked up): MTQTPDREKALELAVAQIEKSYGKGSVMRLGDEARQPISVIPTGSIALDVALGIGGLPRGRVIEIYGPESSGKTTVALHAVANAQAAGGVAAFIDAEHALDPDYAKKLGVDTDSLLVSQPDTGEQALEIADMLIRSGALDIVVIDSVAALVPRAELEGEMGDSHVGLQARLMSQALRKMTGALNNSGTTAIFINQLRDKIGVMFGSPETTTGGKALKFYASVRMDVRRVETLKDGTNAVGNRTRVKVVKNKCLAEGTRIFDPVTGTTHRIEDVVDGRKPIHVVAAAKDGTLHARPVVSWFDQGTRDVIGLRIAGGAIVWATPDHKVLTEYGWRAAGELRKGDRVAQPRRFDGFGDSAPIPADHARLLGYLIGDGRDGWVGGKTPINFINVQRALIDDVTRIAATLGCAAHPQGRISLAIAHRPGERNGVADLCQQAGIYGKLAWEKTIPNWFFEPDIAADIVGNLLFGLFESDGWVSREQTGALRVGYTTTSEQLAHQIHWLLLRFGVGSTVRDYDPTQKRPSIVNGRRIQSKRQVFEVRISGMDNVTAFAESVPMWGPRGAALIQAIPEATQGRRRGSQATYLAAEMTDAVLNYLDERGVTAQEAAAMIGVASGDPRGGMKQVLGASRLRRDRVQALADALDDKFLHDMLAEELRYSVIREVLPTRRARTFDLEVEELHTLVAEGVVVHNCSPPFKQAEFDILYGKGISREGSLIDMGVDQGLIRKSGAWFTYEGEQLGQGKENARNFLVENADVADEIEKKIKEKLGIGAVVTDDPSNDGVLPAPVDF
YopH inh – blocks Yersinia enterocolitica YopH tyrosine phosphatase; inhibition, %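 (about 10 µM by stock and volumes)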; fluorescence Ex485/Em525; 140,000 tested, 0.16% active;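 active means inhibition of 50% or more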;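 further: controls were vehicle for no effect and minimum signal wells for full effect; inactives centre near -20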
Arbovirus inh – blocks arbovirus infection | arbovirus infection cell-based antiviral screen | inhibition, % at 10 µM | 200,000 tested, 0.37% active;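 active means inhibition from about 30%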;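 further: bluetongue infection of BSR cells; cell survival read as ATP light after 72 h; 0% = infected wells without compound and 100% = uninfected wells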
Mtb growth – M. tuberculosis H37Rv growth inhibitors, H37Rv strain (AID 1626) | M. tuberculosis H37Rv growth inhibition; higher % means a stronger effect | inhibition, % at 10 µM; hits with a dose series show IC50 in µM | 220,000 tested, 0.95% active;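 active means confirmed in a dose series; inconclusive means inhibition above 80% but not taken into the dose series; inactive means below 80% or under 30% at every dose of the series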;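 further: bacteria incubated seven days before Alamar blue readout; 0% = bacteria only wells and 100% = bacteria with antibiotic wells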
Mtb betalactam – beta-lactam sensitization of Mtb H37Rv. M. tuberculosis H37Rv growth with meropenem, percent inhibition; hits of this screen are not shown here. inhibition, % at 25 µM. 330,000 tested, 0.27% active. AID 434955;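 active means about 74% or more and at least 40 points above the plate without the antibiotic, then above 30% in a dose series; inconclusive means first-round hits that could not be retested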;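 further: growth measured after seven days incubation then overnight dye step; 0% = bacteria only wells and 100% = bacteria with antibiotic; twin plates without the antibiotic show which effects depend on it; some results filed as inactive read as strong as hits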
Arbovirus inh repeat – further read-out of Arbovirus inh, marked with its call; inhibition, %; measured here: 10K subset replicate screen; many hits read low in the repeat;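 first of two repeat runs on a subset; 0% = infected and 100% = uninfected wells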
An asterisk follows results filed as active; ? = inconclusive; . = not tested or not shown; & = joins results of further samples. Only part of the results is shown; the hit share may differ from the screen's.

SMILES	RecA intein inh	YopH inh	Arbovirus inh	Mtb growth	Mtb betalactam	others
COc1ccc(C(CCN(Cc2ccc(OC)c(OC)c2)C(=O)CCl)c2ccccc2)cc1 (configuration not stated)	77.7*	-30.9	12.4	-10.2%	97.7
CC(/C=C/c1cccs1)=C\C(=O)O	.	-55.9	8.9	-12.1%	-0.1
Cn1c(=O)n(CC(=O)OCc2ccccc2)c(=O)c2c1nc1n2CCCN1C1CCCCC1	-4.2	4.3	.	9.6%	-7.5
Cc1ccc(C)c(NC(=O)CS(=O)(=O)c2cn(C)c3ccccc23)c1	-3.5	-16.4	5.7	-5.3%	-9.0	Arbovirus inh repeat=0.9
CC(/C=N/NC(=O)c1nnn(-c2nonc2N)c1C(C)C)=C\c1ccccc1	5.6	.	.	.	-3.6
COc1cc(/C=N/NC(=O)CSc2nc3ccccc3n2C)cc(OC)c1OC	-0.9	-10.6	0.7	3.2%	-5.6
N#CCNC1CC(=O)N(c2ccccc2)C1=O (configuration not stated)	-0.8	.	.	.	-4.5
CCc1nnc(NC(=O)CS(=O)(=O)Cc2ccccc2)s1	-1.1	.	.	.	0.9
COc1cc(OC)c(N(C)S(=O)(=O)c2cccc(C(=O)Nc3nnc(C4CC4)s3)c2)cc1Cl	-1.7	.	.	-4.3%	-8.8
O=C(C1=C(O)C(=O)N(Cc2ccco2)C1c1ccccc1)c1cccs1 (configuration not stated)	2.3	-18.8	5.2	-10.6%	5.9
CC(C)(C)c1ccc(/C=N/NC(=S)NC2CCCCC2)cc1	13.3	-31.3	-31.8	?	27.6
Cc1cccc(C(C)(C)C)c1OCCCCN1CCCC1	.	0.2	13.9	2.5%	-8.9
CC(=O)c1sc(NC(=O)c2cc(=O)c3ccccc3o2)nc1C	0.4	.	6.1	?	91.8
O=C(Cn1cncn1)N/N=C/c1cccnc1	0.4	.	.	-8.1%	-11.7
Nc1ccc2c(c1)C(=O)N(c1cccc3ccccc13)C2=O	-3.3	.	.	.	-7.7
COC(=O)C(NNc1ccccc1)(NC(=O)c1ccc(F)cc1)C(F)(F)F (configuration not stated)	0.1	-40.4	-22.8	-2.3%	2.0
Cc1ccccc1NC(=O)CC1SCCNC1=O (configuration not stated)	1.1	-22.1	9.4	-0.4%	-2.8
O=c1c2ccccc2nnn1Cc1ccccc1	-0.7	.	.	3.3%	-2.2
COc1ccc(S(=O)(=O)N(CCCN2CCOCC2)Cc2ccc(OC)c(OC)c2)cc1	0.9	-37.0	19.2	3.8%	-0.1
CC(Oc1ccc2c(-c3ccccc3)cc(=O)oc2c1)C(=O)NCC1CCC(C(=O)O)CC1 (configuration not stated)	0.8&22.2	.	.	.	-8.4&0.5
Cc1cc(C)nc(N/N=C/C=C/c2ccccc2)n1	-8.0	-31.5	6.3	4.5%	9.9
CC1C(=O)N2CCCc3cc(S(=O)(=O)N4CCN(c5cccc(Cl)c5)CC4)cc1c32 (configuration not stated)	6.7	.	.	.	-8.0
Cn1c(SCC(N)=O)nnc1C1CCN(C(=O)NCc2ccccc2)CC1	1.2	-173.0	6.3	2.5%	-9.8
CCOC(=O)c1c(NCC2CCCO2)c2ccccc2[nH]c1=O (configuration not stated)	-3.2	3.5	6.0	2.4%	6.3
O=S(=O)(NCc1ccc2c(c1)OCO2)c1ccc2oc3ccccc3c2c1	1.2	-9.2	.	-5.6%	1.4
CCOCc1nnc(NC(=O)c2c(OC)cccc2OC)s1	-0.4	-19.7	3.3	?	1.6
C/C=C/c1ccc(OCCOc2ccc(C=O)cc2)c(OC)c1	-0.4	-38.4	-0.6	18.2%	90.7
CN(Cc1cccc2ncccc12)C(=O)CC1C(=O)NCCN1Cc1ccc(F)cc1 (configuration not stated)	-2.6	.	13.1	-2.7%	2.5
Cc1ccc(S(=O)(=O)NC(C)(C)CSc2ncccn2)cc1	-1.9	.	-2.4	-0.9%	-6.1
O=C1c2ccccc2NC(c2cn[nH]c2-c2ccccc2)N1O (configuration not stated)	-3.7	-8.3	-27.1	5.9%	2.4
COCCNC(=S)NNc1ccc(Cl)c(C(=O)O)c1	0.2	.	.	-6.5%	12.2
COc1ccc(CCn2c(-c3cc([N+](=O)[O-])cc([N+](=O)[O-])c3)nc3nc4ccccc4nc32)cc1	1.5	-24.9	-5.4	?	99.5
COCCCNc1nc(N)c([N+](=O)[O-])c(NCC2CCCO2)n1 (configuration not stated)	-3.5	.	.	-0.3%	-6.9
Cc1nn(CC(=O)NCCc2ccc(Cl)cc2Cl)c(C)c1[N+](=O)[O-]	1.1	-26.0	-1.8	13.9%	3.4
O=C(Cn1cnc2ccccc2c1=O)Nc1ccc(N2CCOCC2)cc1	-4.1	.	2.8	2.5%	-3.1
Cc1cc(N2CCOCC2)n2ncc(-c3ccccc3Cl)c2n1	2.8	.	.	.	12.5
Cc1ccc(Nc2nc(N3CCN(C)CC3)nc(N)c2[N+](=O)[O-])cc1C	-1.4	-14.1	-2.6	9.67µM*	73.2
COc1ccccc1C1CC(=O)Nc2cc3c(cc21)OCCO3 (configuration not stated)	-3.5	-14.8	-8.1	4.0%	19.7
Cc1nn(C)cc1S(=O)(=O)Nc1ccccc1Br	2.5	.	.	.	-6.1
Cc1c(C(=O)OCC[N+]2(C)CCCCC2)oc2ccccc12	-1.3	.	-2.6	-4.9%	-6.9

Taken from the listing, three compounds:
SMILES	RecA intein inh	YopH inh	Arbovirus inh	Mtb growth	Mtb betalactam	others
Cc1cc(C)nc(N/N=C/C=C/c2ccccc2)n1	-8.0	-31.5	6.3	4.5%	9.9
CC1C(=O)N2CCCc3cc(S(=O)(=O)N4CCN(c5cccc(Cl)c5)CC4)cc1c32 (configuration not stated)	6.7	.	.	.	-8.0
Cn1c(SCC(N)=O)nnc1C1CCN(C(=O)NCc2ccccc2)CC1	1.2	-173.0	6.3	2.5%	-9.8

The results go on:
SMILES	RecA intein inh	YopH inh	Arbovirus inh	Mtb growth	Mtb betalactam	others
O=C(O)C(c1ccccc1)C1(O)CCCC1 (configuration not stated)	-1.3	-39.7	4.1	-3.0%	17.7
CCOc1ccccc1-n1c(COc2ccccc2)nnc1SCC(N)=O	-1.3	-35.2	-0.6	2.4%	1.9
Cc1ccc(CN2CCN(CCC(C)C)C(CCO)C2)s1 (configuration not stated)	-0.7	.	-8.5	-1.4%	2.1
Cc1cccc(NC(=O)c2ccc(NCCO)c([N+](=O)[O-])c2)n1	2.4	.	.	-2.2%	-5.3
O=C(CCl)Nc1cn(-c2ccccc2)nc1-c1ccc(F)cc1	46.2*	.	-30.3	61.8%	99.5
CCOC(=O)c1sc(NC(=O)CCCCl)nc1C	-1.2	-29.5	-2.2	6.9%	1.6
CCN(CC)c1ccc(NC(=O)COc2ccc(C#N)cc2)cc1S(=O)(=O)Nc1ccc(OC)cc1	4.0	-31.6	6.5	-3.5%	4.2
Cc1ccccc1N1CCN(C2CCCN(C(=O)c3cnsn3)C2)CC1 (configuration not stated)	-0.3	.	.	.	5.6
c1ccc(COc2ccc(OCCCN3CCCC3)cc2)cc1	-0.7	-17.3	-25.1	3.9%	-1.8
CN(C)S(=O)(=O)c1ccc(S(=O)(=O)N(CC(=O)Nc2ccccc2)CC2CCCO2)cc1 (configuration not stated)	.	-33.9	-19.7	1.9%	2.0
O=C(Nc1ccc(C(=O)O)cc1)/C(=C\C=C\c1ccccc1)NC(=O)c1cccc(Br)c1	13.8	.	7.2	-5.3%	-0.5
Cn1c(=O)c2c(ncn2CCCc2ccccc2)n(C)c1=O	0.7	-50.0	3.5	-0.9%	1.1
COc1ccccc1NS(=O)(=O)c1cc(NC(=O)c2cnccn2)ccc1N1CCOCC1	1.3	.	.	-3.2%	-10.5
Cc1ccc(NC(=O)COC(=O)CN2CSCC2=O)cc1C	0.5	-7.2	1.7	5.3%	1.2
COc1ccc(N2CCN(C(=S)Nc3cccc(C)c3)CC2)cc1	-1.2	-30.3	-1.1	-9.9%	-7.2
O=C(N=c1ccn(-c2nc3ccccc3nc2NS(=O)(=O)c2ccccc2)cc1)c1ccccc1Cl	-6.2	.	.	.	-3.0
O=[N+]([O-])c1cccc(C(=S)N2CCN(c3ccccc3F)CC2)c1	4.8	.	-9.1	7.5%	1.4
Cc1ccccc1CSCCC(=O)NCCC1=CCCCC1	1.1	-20.3	-0.1	-1.8%	-3.2
Cc1ccc(NC(=O)/C(=C\c2cccc([N+](=O)[O-])c2)NC(=O)c2cccs2)cc1	-2.4	-13.8	-8.6	.	4.1
COc1ccc(N2C(=O)c3ccccc3NC2c2ccc(OC)c(Cn3nnc4ccccc43)c2)cc1 (configuration not stated)	-2.9	-9.0	-0.6	-8.4%	?

Reprinted at random: 4 compounds from above
SMILES	RecA intein inh	YopH inh	Arbovirus inh	Mtb growth	Mtb betalactam	others
COc1ccc(N2CCN(C(=S)Nc3cccc(C)c3)CC2)cc1	-1.2	-30.3	-1.1	-9.9%	-7.2
Cc1ccccc1CSCCC(=O)NCCC1=CCCCC1	1.1	-20.3	-0.1	-1.8%	-3.2
Cc1cccc(NC(=O)c2ccc(NCCO)c([N+](=O)[O-])c2)n1	2.4	.	.	-2.2%	-5.3
COc1ccccc1NS(=O)(=O)c1cc(NC(=O)c2cnccn2)ccc1N1CCOCC1	1.3	.	.	-3.2%	-10.5

Structures shown so far that contain bromine, in the order listed:
SMILES	RecA intein inh	YopH inh	Arbovirus inh	Mtb growth	Mtb betalactam	others
Cc1nn(C)cc1S(=O)(=O)Nc1ccccc1Br	2.5	.	.	.	-6.1
O=C(Nc1ccc(C(=O)O)cc1)/C(=C\C=C\c1ccccc1)NC(=O)c1cccc(Br)c1	13.8	.	7.2	-5.3%	-0.5

Returning to the listing; the 2 compounds before the break are reprinted first.
SMILES	RecA intein inh	YopH inh	Arbovirus inh	Mtb growth	Mtb betalactam	others
Cc1ccc(NC(=O)/C(=C\c2cccc([N+](=O)[O-])c2)NC(=O)c2cccs2)cc1	-2.4	-13.8	-8.6	.	4.1
COc1ccc(N2C(=O)c3ccccc3NC2c2ccc(OC)c(Cn3nnc4ccccc43)c2)cc1 (configuration not stated)	-2.9	-9.0	-0.6	-8.4%	?
CC(C)[C@@H](C(=O)N[C@@H](C(=O)O)c1ccccc1)N1C(=O)N2CCc3c([nH]c4ccccc34)[C@@]2(C)C1=O	4.1	.	.	.	-3.6
O=C1CC(N2CCN(Cc3ccc4c(c3)OCO4)CC2)C(=O)N1c1cccc(Cl)c1 (configuration not stated)	-4.7	-20.9	0.1	-11.5%	-4.2
CN(C)CCNC(=O)C(=O)Nc1ccc2c(c1)N(S(=O)(=O)c1cccs1)CCC2	-2.1	.	.	.	7.0
CCCCC(CCC(=O)Nc1ccn(-c2ccccc2)n1)C(=O)O (configuration not stated)	-1.6	.	.	-4.3%	-1.0
Cc1nc2oc(C(=O)c3ccc(Br)cc3)c(N)c2c2c1COC(C)(C)C2	-5.6	-23.7	1.3	-0.7%	13.3
CS(=O)(=O)N1CCCC(C(=O)NCCCN2CCc3ccccc3C2)C1 (configuration not stated)	0.0	23.7	4.0	0.6%	4.8
C/C(CC1CC(C)(C)OC1=O)=N/Nc1nc(-c2ccccc2)cs1 (configuration not stated)	-1.3	1.7	-11.6	?	81.5
CC(=O)Nc1ccc(S(=O)(=O)N2CCN=C2SCc2ccc(F)cc2)cc1	1.0	.	.	.	-9.0
O=C1CCN(Cc2ccc([N+](=O)[O-])cc2)CCN1[C@H](CO)c1ccccc1	-2.8	.	.	.	-6.2
COc1ccc2[nH]c(C(=O)O)c(CCN3C(=O)c4ccc(C(=O)O)cc4C3=O)c2c1	-3.0	.	.	.	-2.4
O=C(Nc1cccnc1)c1cc2cc(Br)ccc2o1	-1.8	.	.	.	7.6
Cc1nn(C)c(C(=O)Nc2ccc(S(=O)(=O)NC34CC5CC(CC(C5)C3)C4)cc2)c1Br	0.0	-24.6	-8.1	4.0%	-2.6
Cc1cc(SCC(N)=O)nc(SCC(=O)c2ccccc2)n1	-0.3	1.0	-0.3	-6.5%	9.2
COc1ccc(NC(=S)Nc2ccc(N(C)C(C)=O)cc2)cc1	0.5	.	3.0	-6.1%	-0.4
O=C(CCC(=O)N1CCN(c2ccc(F)cc2)CC1)N1CCN(c2ccc(F)cc2)CC1	-1.4	.	.	.	-2.8
